# Screening data from PubChem.
# FGF22 binding: binders of human FGF22 protein, primary screen, FGF22 synaptogenesis inhibitor project, biophysical, thermal shift, single point. recombinant FGF22 thermal shift, SYPRO orange fluorescence; percent of sucrose octasulfate shift, DMSO zero. calls only at 9.99 µM. actives 1.5% (n = 340,000);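 active = melting point raised past a set limit in the mean and every replicate; three in four hits are not shown here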
# Target sequence (Q9HCT0 whole entry, looked up): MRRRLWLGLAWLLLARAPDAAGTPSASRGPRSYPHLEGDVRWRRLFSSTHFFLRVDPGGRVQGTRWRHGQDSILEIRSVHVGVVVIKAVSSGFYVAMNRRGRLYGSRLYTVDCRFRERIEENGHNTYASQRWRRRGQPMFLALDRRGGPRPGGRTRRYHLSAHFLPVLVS
# Ecoli rRNA inh: reduced GFP signal of wild-type E. coli, primary screen, bacterial rRNA inhibitor project, GFP/RFP fluorescence, OD600, single point | E. coli WT GFP vs humanized-ribosome RFP mutants, 24 h; active compounds read low; DMSO median 0, no signal -100 | GFP signal change (wild-type ribosome), % (test concentration not listed) | actives 1.6% (n = 350,000) | AID 720706, 2013;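 active = significant combined selectivity score with lowered wild-type GFP, culture density cut under 30%, mutant RFP and density less affected; inactive = any of these conditions unmet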; note: one replicate is shown; some compounds called inactive have numbers as strong as hits
# Ecoli rRNA inh OD600: further read-out of Ecoli rRNA inh, marked with its call; OD600 change, %; measured here: OD600 growth;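 optical density of the mix in the first replicate; 0 = DMSO median and -100 = no signal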
# Ecoli rRNA inh RFP: also measured in Ecoli rRNA inh; calls as there; RFP signal change, %; measured here: RFP humanized mutant strains;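 first replicate; 0 = DMSO median and -100 = no signal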
# Active calls of the source: *; i = inactive.
SMILES,FGF22 binding,Ecoli rRNA inh,Ecoli rRNA inh OD600,Ecoli rRNA inh RFP
C[C@@H]1CN([C@@H](C)CO)C(=O)Cc2cc(NS(=O)(=O)c3cccs3)ccc2O[C@H]1CN(C)CC1CCCCC1,i,0,-7,4.9
N#C[C@H]1[C@@H](c2ccccc2)[C@@H](CO)N1S(=O)(=O)c1cccc(F)c1,i,8,21,0.8
Cc1noc(C)c1NC(=O)Nc1ccc2c(c1)C(=O)N([C@@H](C)CO)C[C@@H](C)[C@H](CN(C)C(=O)Nc1c(C)noc1C)OCCCC[C@@H](C)O2,i,3,8,0.0
COc1cccc(S(=O)(=O)N[C@@H]2C=C[C@@H](CC(=O)NCc3ccc(F)cc3)O[C@@H]2CO)c1,i,0,9,1.6
C[C@H](CO)N1C[C@H](C)[C@H](CN(C)Cc2ccccc2O)OCc2cn(nn2)CCCC1=O,i,3,4,3.2
COc1ccc(S(=O)(=O)Nc2cccc3c2O[C@@H](CN(C)C(=O)Nc2ccc(F)cc2)[C@@H](C)CN([C@@H](C)CO)C3=O)cc1,i,5,-2,3.5
N#C[C@H]1[C@H](c2ccc(C3=CCCCC3)cc2)[C@H](CO)N1C(=O)CN1CCOCC1,i,3,1,4.5
O=C(C[C@H]1CC[C@H](NS(=O)(=O)c2ccc(F)cc2)[C@@H](CO)O1)N1CCc2ccccc2C1,i,-2,-5,-2.1
CN(C)CCCNC(=O)C[C@@H]1CC[C@H]2[C@@H](COC[C@H](O)CN2S(=O)(=O)c2ccccc2)O1,i,2,7,-4.1
C[C@H](CO)N1C[C@H](C)[C@@H](CN(C)C(=O)CCC(F)(F)F)OCCCC[C@H](C)Oc2ccc(NC(=O)Cc3ccccc3)cc2C1=O,i,-1,-11,1.2
C[C@H](CO)N1C[C@H](C)[C@@H](CN(C)S(=O)(=O)c2ccc(Cl)cc2)Oc2ccc(N(C)C)cc2C1=O,i,-6,-12,3.1
O=C(N[C@@H]1CC[C@@H](CCn2cc(Cc3ccccc3)nn2)O[C@H]1CO)c1ccccn1,i,-2,-1,-0.8
CNC[C@H]1Oc2ccc(NC(=O)Cc3ccccc3)cc2CC(=O)N([C@@H](C)CO)C[C@H]1C,i,2,9,-0.9
COc1ccc(NC(=O)Nc2ccc3c(c2)C(=O)N([C@H](C)CO)C[C@@H](C)[C@@H](CN(C)C)OCCCC[C@@H](C)O3)cc1,i,3,7,0.3
C[C@@H]1CN([C@H](C)CO)C(=O)c2cccc(NC(=O)c3ccncc3)c2O[C@@H]1CN(C)C,i,0,4,0.1
CCC(=O)Nc1ccc2c(c1)OC[C@@H](C)N(C(=O)c1ccccc1F)C[C@@H](C)[C@H](OC)CN(C)C2=O,i,1,3,-3.9
CNC[C@@H]1OCCCC[C@@H](C)Oc2ccc(NC(=O)Nc3cccc4ccccc34)cc2C(=O)N([C@H](C)CO)C[C@H]1C,i,2,2,1.2
C[C@@H]1CCCCO[C@H](CN(C)Cc2ccc3c(c2)OCO3)[C@H](C)CN([C@@H](C)CO)C(=O)c2cc(NC(=O)C3CCCCC3)ccc2O1,i,1,-4,0.2
C[C@@H]1CN([C@@H](C)CO)C(=O)c2cc(NS(=O)(=O)c3cn(C)cn3)ccc2O[C@@H]1CN(C)CC1CCCCC1,i,3,7,-1.2
C[C@H]1CCCCO[C@H](CN(C)S(=O)(=O)c2cn(C)cn2)[C@@H](C)CN([C@@H](C)CO)C(=O)c2cc(NC(=O)Nc3ccccc3)ccc2O1,i,-1,2,-1.9
CNC(=O)C[C@@H]1CC[C@H]2[C@H](COc3ccc(NC(=O)Nc4cccc(C)c4)cc3C(=O)N2C)O1,i,1,-2,2.1
CCNC(=O)[C@H]1[C@H](CO)[C@H]2Cn3c(cccc3=O)[C@H]2N1Cc1cccc(F)c1,i,2,4,-0.2
CNC[C@H]1Oc2ccc(NC(=O)Nc3ccc(C(F)(F)F)cc3)cc2CC(=O)N([C@@H](C)CO)C[C@H]1C,i,-5,-6,1.2
O=C(C1CC1)N1CC2(C1)[C@@H](c1ccccc1)[C@@H](CO)N2Cc1ccccc1F,i,-6,-5,-0.5
C[C@H]1CN([C@@H](C)CO)S(=O)(=O)c2ccc(Br)cc2O[C@@H]1CN(C)CC1CCOCC1,i,-11,3,2.5
# Next part:
SMILES,FGF22 binding,Ecoli rRNA inh,Ecoli rRNA inh OD600,Ecoli rRNA inh RFP
COc1ccc2c3c(n(C)c2c1)[C@H](CO)N(Cc1ccccc1OC)CC31CCN(CC2CCOCC2)CC1,i,2,10,-0.9
COc1cccc(C(=O)Nc2ccc3c(c2)OC[C@@H](C)N(C(=O)C2CCOCC2)C[C@@H](C)[C@H](OC)CN(C)C3=O)c1,i,2,7,0.4
COCC#Cc1cnc2c(c1)C(=O)N([C@@H](C)CO)C[C@H](C)[C@@H](CN(C)C(C)=O)O2,i,-1,8,0.9
CCCNC(=O)C[C@@H]1C[C@H]2c3cc(NS(C)(=O)=O)ccc3O[C@H]2[C@@H](CO)O1,i,-1,6,-3.6
C[C@H](CO)N1C[C@H](C)[C@H](CN(C)Cc2ccc(C(F)(F)F)cc2)Oc2ccc(NC(=O)CCN3CCOCC3)cc2CC1=O,i,0,-6,1.4
C[C@@H]1CCCCO[C@H](CN(C)S(=O)(=O)c2ccc(Cl)cc2)[C@H](C)CN([C@H](C)CO)C(=O)c2cc(NC(=O)Cc3ccccc3)ccc2O1,i,2,4,2.4
Brc1ccc(COCCc2cn(Cc3ccccc3)c3ccccc23)cc1,i,9,14,1.7
C[C@H]1CN([C@@H](C)CO)C(=O)Cc2cc(NC(=O)Nc3ccc4c(c3)OCO4)ccc2O[C@H]1CN(C)C(=O)Nc1cccc2ccccc12,i,-1,-6,-1.5
C[C@H](CO)N1C[C@H](C)[C@H](CN(C)Cc2ccc(C(=O)O)cc2)Oc2ccc(NC(=O)Nc3ccc(F)cc3)cc2CC1=O,i,1,0,0.5
CC(C)NC(=O)N(C)C[C@H]1Oc2ccc(NC(=O)NC3CCCCC3)cc2C(=O)N([C@@H](C)CO)C[C@@H]1C,i,0,10,0.3
COc1ccc(S(=O)(=O)N(C)C[C@@H]2Oc3cc(C#CC4CCCC4)ccc3S(=O)(=O)N([C@@H](C)CO)C[C@H]2C)cc1,i,2,1,-0.5
C[C@H]1CN([C@@H](C)CO)C(=O)c2cc(C#CC3(O)CCCC3)cnc2O[C@H]1CN(C)S(=O)(=O)c1ccc(F)cc1,i,4,6,-2.8
C/C=C/c1ccc2c(c1)O[C@@H](CN(C)C(=O)c1ccccn1)[C@H](C)CN([C@@H](C)CO)S2(=O)=O,i,1,-2,-2.8
COc1ccc(NC(=O)N2CCC3(CC2)CN(C(C)=O)[C@H](CO)c2[nH]c4cc(OC)ccc4c23)cc1,i,-3,-9,-2.4
COc1ccc(S(=O)(=O)N(C)C[C@H]2OCCCC[C@H](C)Oc3ccc(NC(=O)NC4CCCCC4)cc3C(=O)N([C@H](C)CO)C[C@@H]2C)cc1,i,0,6,-2.8
CC(C)C(=O)Nc1ccc2c(c1)C(=O)N(C)[C@H]1CC[C@@H](CC(=O)NCc3ccccc3F)O[C@H]1CO2,i,-4,1,-6.0
Cc1noc(C)c1NC(=O)N(C)C[C@@H]1Oc2ccc(NC(=O)Nc3ccccc3)cc2C(=O)N([C@H](C)CO)C[C@@H]1C,i,5,7,-0.8
Cc1noc(C)c1S(=O)(=O)Nc1ccc2c(c1)CC(=O)N([C@H](C)CO)C[C@H](C)[C@@H](CN(C)S(C)(=O)=O)O2,i,1,-5,-1.8
O=C(Nc1cccc(F)c1)N1CC(=O)N2[C@H](C1)[C@H](c1ccc(Br)cc1)[C@@H]2CO,i,-4,10,-3.2
COc1ccc2c3c([nH]c2c1)[C@H](CO)N(Cc1ccncc1)CC31CCN(C(=O)c2cccnc2)CC1,i,2,7,14
C[C@@H](NC(=O)C[C@H]1CC[C@H]2[C@@H](COC[C@H](O)CN2C(=O)Nc2cccc(Cl)c2)O1)c1ccccc1,i,-58,-74,-18
COc1cccc(CNC(=O)[C@H]2CCCN2C(=O)[C@H]2CCCN2C(=O)c2ccc(C)c(C)c2)c1,i,10,2,8.2
CN(C)C(=O)C[C@H]1CC[C@@H]2[C@H](COC[C@H](O)CN2C(=O)c2ccncc2)O1,i,7,6,-1.1
CO[C@@H]1CN(C)C(=O)c2cc(NC(=O)C3CCCCC3)ccc2OC[C@@H](C)N(C)C[C@@H]1C,i,0,5,-0.8
C[C@@H]1CN([C@H](C)CO)C(=O)c2cccc(NS(=O)(=O)c3cn(C)cn3)c2O[C@@H]1CN(C)S(=O)(=O)c1ccc(Cl)cc1,i,-1,-1,-3.2

# 10 consecutive records from above, quoted:
SMILES,FGF22 binding,Ecoli rRNA inh,Ecoli rRNA inh OD600,Ecoli rRNA inh RFP
C[C@H](CO)N1C[C@H](C)[C@H](CN(C)Cc2ccc(C(=O)O)cc2)Oc2ccc(NC(=O)Nc3ccc(F)cc3)cc2CC1=O,i,1,0,0.5
CC(C)NC(=O)N(C)C[C@H]1Oc2ccc(NC(=O)NC3CCCCC3)cc2C(=O)N([C@@H](C)CO)C[C@@H]1C,i,0,10,0.3
COc1ccc(S(=O)(=O)N(C)C[C@@H]2Oc3cc(C#CC4CCCC4)ccc3S(=O)(=O)N([C@@H](C)CO)C[C@H]2C)cc1,i,2,1,-0.5
C[C@H]1CN([C@@H](C)CO)C(=O)c2cc(C#CC3(O)CCCC3)cnc2O[C@H]1CN(C)S(=O)(=O)c1ccc(F)cc1,i,4,6,-2.8
C/C=C/c1ccc2c(c1)O[C@@H](CN(C)C(=O)c1ccccn1)[C@H](C)CN([C@@H](C)CO)S2(=O)=O,i,1,-2,-2.8
COc1ccc(NC(=O)N2CCC3(CC2)CN(C(C)=O)[C@H](CO)c2[nH]c4cc(OC)ccc4c23)cc1,i,-3,-9,-2.4
COc1ccc(S(=O)(=O)N(C)C[C@H]2OCCCC[C@H](C)Oc3ccc(NC(=O)NC4CCCCC4)cc3C(=O)N([C@H](C)CO)C[C@@H]2C)cc1,i,0,6,-2.8
CC(C)C(=O)Nc1ccc2c(c1)C(=O)N(C)[C@H]1CC[C@@H](CC(=O)NCc3ccccc3F)O[C@H]1CO2,i,-4,1,-6.0
Cc1noc(C)c1NC(=O)N(C)C[C@@H]1Oc2ccc(NC(=O)Nc3ccccc3)cc2C(=O)N([C@H](C)CO)C[C@@H]1C,i,5,7,-0.8
Cc1noc(C)c1S(=O)(=O)Nc1ccc2c(c1)CC(=O)N([C@H](C)CO)C[C@H](C)[C@@H](CN(C)S(C)(=O)=O)O2,i,1,-5,-1.8

# (continued)
SMILES,FGF22 binding,Ecoli rRNA inh,Ecoli rRNA inh OD600,Ecoli rRNA inh RFP
Cc1cccc(S(=O)(=O)N2C[C@H]3[C@@H](c4ccccc42)[C@H](CO)N3C(=O)CC2CC2)c1,i,-9,-10,-1.8
Cc1ccc(S(=O)(=O)NCC[C@H]2CC[C@@H](NS(=O)(=O)c3ccccc3Cl)[C@H](CO)O2)cc1,i,-4,-10,-1.1
CNC[C@@H]1OCCCC[C@@H](C)Oc2ccc(NS(=O)(=O)c3c(C)noc3C)cc2C(=O)N([C@H](C)CO)C[C@H]1C,i,6,1,-1.3
COc1ccc(S(=O)(=O)Nc2ccc3c(c2)C(=O)N([C@H](C)CO)C[C@H](C)[C@@H](CN(C)Cc2ccc(Oc4ccccc4)cc2)O3)cc1,i,5,5,11
CN(C)C(=O)c1cccc(-c2ccc([C@@H]3[C@@H](CO)N4CCCCN(CCC(F)(F)F)C[C@H]34)cc2)c1,i,3,6,-0.6
CN1[C@@H]2c3ccc(C4=CCCCC4)c(=O)n3C[C@H]1[C@H](CO)[C@H]2C(=O)N1CCCCC1,i,2,3,-0.1
COc1ccc(S(=O)(=O)N2CCC3(CC2)CN(C(=O)c2cccnc2)[C@H](CO)c2c3c3ccc(OC)cc3n2C)cc1,i,-4,-17,3.8
COc1ccc(NC(=O)N(C)C[C@@H]2Oc3c(NC(=O)C4CCOCC4)cccc3C(=O)N([C@@H](C)CO)C[C@H]2C)cc1,i,3,8,-3.0
Cc1ccc(S(=O)(=O)N(C)C[C@H]2Oc3c(NC(=O)C4CC4)cccc3C(=O)N([C@@H](C)CO)C[C@H]2C)cc1,i,-4,2,-3.2
CNC[C@H]1Oc2c(NC(=O)C3CCCCC3)cccc2C(=O)N([C@@H](C)CO)C[C@H]1C,i,3,3,-0.3
CC(C)N(C[C@H]1[C@@H](c2ccccc2)[C@H](CO)N1S(C)(=O)=O)C(=O)CN(C)C,i,0,-3,-0.3
COc1ccc(S(=O)(=O)Nc2ccc3c(c2)CC(=O)N([C@@H](C)CO)C[C@H](C)[C@@H](CN(C)Cc2ccncc2)O3)cc1,i,-5,-3,-0.3
C[C@H](CO)N1C[C@H](C)[C@@H](CN(C)C(=O)Cc2ccccc2)Oc2cc(-c3cncnc3)ccc2S1(=O)=O,i,-1,7,-2.3
COc1ccc(-c2ccc([C@@H]3[C@@H](CO)N4CCCCN(C(=O)c5ccc6c(c5)OCO6)C[C@H]34)cc2)cc1,i,-5,-50,17
COc1cccc(C(=O)Nc2ccc3c(c2)C(=O)N(C)[C@@H]2CC[C@@H](CC(=O)N[C@H](C)c4ccccc4)O[C@H]2CO3)c1,i,-6,-17,-0.4
C[C@H](CO)N1C[C@H](C)[C@@H](CN(C)Cc2ccc(C(=O)Nc3ccccc3N)cc2)Oc2ccc(NS(C)(=O)=O)cc2CC1=O,i,0,-5,-2.2
CCCc1cn(CC[C@@H]2CC[C@H](NC(=O)C3CCCC3)[C@H](CO)O2)nn1,i,1,-4,1.5
O=C(Nc1ccccc1)N1CCCCN2[C@H](CO)[C@@H](c3ccc(C#Cc4cccnc4)cc3)[C@@H]2C1,i,-1,-4,8.7
Clc1ccc(CN2CCN(c3ncc(Cc4ccccc4)cn3)CC2)cc1,i,1,9,3.4

# Only part of the results is shown; count on the stated rates, not on these rows.
